Bioassay records deposited in PubChem by Southern Research Institute.
Mtb growth = Mycobacterium tuberculosis H37Rv growth inhibition, cell based, confirmatory dose response (AID 1949); inhibition, % at 10 µg/mL, or IC50 in µg/mL where a hit was titrated; 100,000 tested, 1.6% active; M. tuberculosis H37Rv growth inhibition; most inactive calls were filed without a number and no value below 0 was filed;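 active = confirmed in a dose series; inconclusive = about 50% or more but not retested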;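 note: bacteria grown 7 days with compound before Alamar blue readout; 0% = untreated bacteria and 100% = reference antibiotic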
Active calls of the source: *; i = inactive; u = inconclusive. The list is partial (hit frequency here may not be typical).

SMILES	Mtb growth
CCCOc1ccc(C2C3=C(CCCC3=O)N(C)C3=C2C(=O)CCC3)cc1	i
O=C(Nc1cccc(C(=O)N2CCOCC2)c1)Nc1ccc(Cl)c(Cl)c1	i
NC(=O)c1c(NC(=O)c2ccc(-c3cccc(Cl)c3)o2)sc2c1CCCC2	i
O=C(CN(c1ccccc1)S(=O)(=O)c1ccccc1)Nc1ccccc1-c1ccccc1	i
CCc1cccc(C)c1NC(=O)c1cc2ccccc2cc1OC	21%
COc1cc(C(=O)N2CCN(c3ncccn3)CC2)cc(OC)c1OC	i
COC(=O)CNC(=O)c1cn(-c2ccccc2)nc1-c1cc2ccccc2o1	i
Cc1ccc(Cl)cc1NC(=O)c1ccc(N(C)C)cc1	i
CCc1ccc(OCC(=O)N(C)Cc2ccccc2)cc1	0%
CCCCOc1cccc(C(=O)Nc2ccc3oc(-c4ccncc4)nc3c2)c1	0%
O=C(O)C1CC=CCC1C(=O)Nc1ccc(F)cc1F (stereo unspecified)	i
Cc1ccc(-c2noc(CNc3ccc(Oc4ccccc4)cc3)n2)cc1	u
O=C(Nc1nc(-c2ccccc2)c(-c2ccc([N+](=O)[O-])cc2)s1)c1cccs1	u
Cc1cc(C)c(NC(=O)c2ccoc2C)c(C)c1	i
CCc1c(C)sc(NC(=O)c2ccc(OC(C)C)cc2)c1C(N)=O	7%
CC(=O)Nc1ccccc1NC(=O)c1cc(C)cc(C)c1	i
CC(C)c1cccc(C(C)C)c1NC(=O)c1ccc(OCC(=O)N2CCCCC2)cc1	i
Cn1c(SCc2ccc(Cl)c(Cl)c2)nnc1-c1ccccc1Cl	0%
CCC(=O)Nc1ccc(C(=O)N2CCN(c3cccc(C(F)(F)F)c3)CC2)cc1	28%
C=COCCNC(=O)Nc1ccccc1OC	i
CC(C)C(=O)N1CCN(c2ccc(NC(=O)CCc3ccccc3)cc2)CC1	i
NS(=O)(=O)c1ccc(CCNC(=O)c2ccc(Br)s2)cc1	i
Cc1ccc2oc(C(=O)Nc3ccc(S(=O)(=O)Nc4ncccn4)cc3)c(C)c2c1	i
O=C(NC(=S)Nc1ccccc1C(=O)O)c1ccccc1Br	i
O=C(Nc1ccccc1)c1cccs1	i

Filtered by structure: those above with an aryl methoxy group (three)
SMILES	Mtb growth
CCc1cccc(C)c1NC(=O)c1cc2ccccc2cc1OC	21%
COc1cc(C(=O)N2CCN(c3ncccn3)CC2)cc(OC)c1OC	i
C=COCCNC(=O)Nc1ccccc1OC	i

Next section.
SMILES	Mtb growth
O=C(COc1ccc(S(=O)(=O)NC2CCCCC2)cc1)Nc1ccc(F)c(Cl)c1	0%
NS(=O)(=O)c1ccc(CNC(=S)NC2CCCCC2)cc1	i
COc1ccc(C(=O)Nc2nnc(CC(C)(C)C)s2)c(OC)c1	i
CC(C)(C)NC(=O)c1ccc(NC(=O)c2ccccc2)cc1	i
Cc1ccc(NC(=O)CCC2CCCCC2)c([N+](=O)[O-])c1	5%
CC(=O)Nc1ccc2nc(NC(=O)c3cccs3)sc2c1	0%
CCCCc1cc(=O)oc2cc(OC(C)=O)ccc12	i
COc1ccc(NC(=O)Nc2ccc(N3CCCC3=O)cc2)cc1OC	i
CS(=O)(=O)Nc1ccc(C(=O)NCCSCc2ccco2)cc1	i
FC(F)(F)Oc1ccc(NC(=S)NCc2ccccc2)cc1	i
Cc1cccc(N2C(=O)CC(N(C(=O)c3ccco3)c3cccc(C)c3)C2=O)c1 (stereo unspecified)	i
O=C(Nc1ccccc1N1CCN(C(=O)c2ccc(Cl)cc2)CC1)c1cccc([N+](=O)[O-])c1	1%
C=CCn1c(SCC(=O)Nc2cccc(C(=O)OCC)c2)nnc1-c1ccccc1	i
CCN(CC)S(=O)(=O)c1ccc2[nH]c(=O)[nH]c2c1	i
CC1CC(C)CN(CCOc2ccc(F)cc2)C1 (stereo unspecified)	i
Cc1ccccc1C(=O)Nc1ccccc1C(=O)NC(C)C	i
O=C(Nc1ccc([N+](=O)[O-])cc1)c1cccc(Oc2ccccc2)c1	8%
COc1ccc(OC)c(S(=O)(=O)N(C)CC(=O)NC2CC2)c1	i
Cc1cc(S(=O)(=O)N(C)c2ccccc2)ccc1Cl	5%
CCCCC(CC)C(=O)Nc1ccc(OCC)cc1[N+](=O)[O-] (stereo unspecified)	5%
O=S(=O)(N1CCCCC1)n1c(Cc2ccccc2)nc2ccccc21	i
CCOC(=O)c1c(NC(=S)NC(=O)CC)sc2c1CCC2	i
COC(=O)c1ccc(CSc2nnc(-c3cccnc3)o2)cc1	1%
CC(=O)c1cccc(NC(=O)Oc2ccccc2)c1	0%
Cc1ccc(N2C(=O)CC(N3CCC(c4nc5ccccc5[nH]4)CC3)C2=O)cc1Cl (stereo unspecified)	i

Looked up one by one from the list above, five records:
SMILES	Mtb growth
FC(F)(F)Oc1ccc(NC(=S)NCc2ccccc2)cc1	i
Cc1cc(S(=O)(=O)N(C)c2ccccc2)ccc1Cl	5%
NC(=O)c1c(NC(=O)c2ccc(-c3cccc(Cl)c3)o2)sc2c1CCCC2	i
O=C(O)C1CC=CCC1C(=O)Nc1ccc(F)cc1F (stereo unspecified)	i
COC(=O)c1ccc(CSc2nnc(-c3cccnc3)o2)cc1	1%

The results go on.
SMILES	Mtb growth
O=C(Nc1c[nH]c(=O)[nH]c1=O)c1ccc(-c2ccccc2)cc1	2%
CN(c1ccc(C(=O)Nc2ccc(S(=O)(=O)Nc3ccc(Br)cc3)cc2)cc1)S(C)(=O)=O	i
COC(=O)c1ccc(NC(=S)N2CCN(c3ccccc3F)CC2)cc1	i
O=c1cnnc(SCc2cc(Cl)ccc2Cl)[nH]1	i
O=C(Cc1ccc([N+](=O)[O-])cc1)Nc1ccc(Br)cc1C(=O)O	0%
CC(C)(C)Nc1nc(Cl)nc(Nc2ccccc2)n1	5%
O=C(Cn1nc(C(F)(F)F)c2c1CCC2)NCc1cccs1	i
CC(NC(=O)CSc1ccc(Br)cc1)c1ccccc1 (stereo unspecified)	4%
Cc1cc(C)c2ccc(/C=C/c3ccccc3N)nc2c1O	i
O=C(NCCc1ccc(Cl)cc1)c1ccc2c(c1)OCO2	4%
CC(=O)OC1CC(C)(C)N(C(C)=O)C(C)(C)C1	1%
CCN(CC)S(=O)(=O)c1ccc(NC(=O)COc2ccccc2Cl)cc1	i
CCC(Oc1ccccc1)C(=O)Nc1ccc(C)c(C)c1 (stereo unspecified)	i
c1ccc(CN2CCN(c3nnnn3-c3ccccc3)CC2)cc1	i
CCCCN1C(=O)/C(=c2\sc3n(c2=O)C(c2cccs2)C(C(=O)OC)=C(C)N=3)c2ccccc21 (stereo unspecified)	2%
CCOc1ccc2nc(NC(=O)c3c(-c4ccccc4)noc3C)sc2c1	i
S=C(NCCc1ccccc1)N1CCN(Cc2ccc(Cl)c(Cl)c2)CC1	i
COc1ccc(C(C)C)cc1S(=O)(=O)Nc1cccnc1	i
CC1=C(C(N)=O)C(c2cccc(F)c2)n2ncnc2N1 (stereo unspecified)	i
Cc1cc(NS(=O)(=O)c2ccc(NC(=O)CCCC(=O)O)cc2)nc(C)n1	i
CCOC(=O)CSc1cc(C)nc(N)n1	i
COC(=O)c1ccc(N2C(=O)CC(NCc3ccc(OC)c(OC)c3)C2=O)cc1 (stereo unspecified)	i
COc1ccc(NC(=O)COc2ccc(S(=O)(=O)NCC(C)C)cc2Cl)cc1OC	i
COc1ccc2c(C)c(C)c(=O)oc2c1OC	i
O=C(OCC#CCSc1nnc(-c2ccncc2)o1)c1sc2ccccc2c1Cl	2%

Of the compounds above, 6 have a furan ring, fused or not:
SMILES	Mtb growth
NC(=O)c1c(NC(=O)c2ccc(-c3cccc(Cl)c3)o2)sc2c1CCCC2	i
COC(=O)CNC(=O)c1cn(-c2ccccc2)nc1-c1cc2ccccc2o1	i
Cc1cc(C)c(NC(=O)c2ccoc2C)c(C)c1	i
Cc1ccc2oc(C(=O)Nc3ccc(S(=O)(=O)Nc4ncccn4)cc3)c(C)c2c1	i
CS(=O)(=O)Nc1ccc(C(=O)NCCSCc2ccco2)cc1	i
Cc1cccc(N2C(=O)CC(N(C(=O)c3ccco3)c3cccc(C)c3)C2=O)c1 (stereo unspecified)	i

Later entries.
SMILES	Mtb growth
O=c1cc(Cc2ccccc2)nc2c(-c3ccccc3)c[nH]n12	0.36µg/mL*
O=c1oc2cc(OCc3ccccc3Cl)ccc2c2ccccc12	8%
COC(=O)c1ccc(NS(=O)(=O)c2ccc(CC(C)C)cc2)cc1	i
O=c1c2c3c(sc2[nH]c(=S)n1-c1ccccc1)CCCCC3	i
CCC(C)NC(=O)COc1cccc(C)c1C (stereo unspecified)	i
COC(=O)C1CCN(C(=O)c2ccccc2F)CC1	7%
Cc1ccc(S(=O)(=O)NCC(=O)N2CCc3ccccc3C2)cc1	i
CCc1cc2c(=O)n(-c3ccccc3)cnc2s1	i
O=S(=O)(c1cccc(-c2nc3ccccc3s2)c1)N1CCCCC1	i
COc1ccc(C(=O)OCc2ccccn2)cc1	4%
Nc1nc(COc2ccc(Cl)cc2Cl)cs1	i
Cc1ccnc(NC(=O)c2ccc(COc3c(F)c(F)cc(F)c3F)o2)c1	i
COC(=O)c1ccc(CSc2nc3ccccc3o2)cc1	27%
CCC(CC)C(=O)Nc1cccc(C(=O)Nc2nnc(SCCOC)s2)c1	i
COc1ccc(NC(=O)c2cnn(-c3ccccc3)c2NC(=O)c2ccccc2F)c(OC)c1	i
CCCS(=O)(=O)N1CCN(Cc2ccc(F)cc2)CC1	i
Cc1ccc(C(=O)O)cc1S(=O)(=O)N1CCCC1	5%
CCOc1cc(C2NC(=O)N(CC)C(C)=C2C(=O)OC)c(Cl)cc1O (stereo unspecified)	i
COc1ccc(NC(=O)c2c(C)noc2C)cc1OC	i
CC(C)(Oc1ccc(Cl)cc1)C(=O)Nc1cc(Cl)ccc1O	i
COc1ccccc1OCCn1cc(C(=S)N2CCCC2)c2ccccc21	i
O=C(Cc1ccccc1)Nc1ccc(Oc2cccnc2)cc1	i
Cc1ccc(CC(=O)Nc2ccc(C)c(C)c2)cc1	1%
C=CCNCCCCOc1c(Cl)cc(C)cc1Br	i
COc1ccc(CCNC(=O)c2cc(C)cc(C)c2)cc1OC	i
(cont.)
SMILES	Mtb growth
COc1ccccc1N1CCN(CC(S)COCc2ccccc2)CC1 (stereo unspecified)	i
O=C(NCc1cccs1)Nc1ccc2c(c1)OCO2	i
COc1ccc(-c2nnc(SCC(=O)Nc3c(C)cc(I)cc3C)o2)cc1	i
CCOC(=O)C1=C(C)NC(=O)NC1c1ccc(N(CC)CC)cc1 (stereo unspecified)	i
COCc1cc(=O)[nH]c(/N=C(/NC(=O)c2ccccc2)Nc2ccccc2C)n1	i
COC(=O)CSc1nc(N2CCOCC2)c2c(c1C#N)CC(C)(C)SC2	27%
COc1ccc(S(=O)(=O)N(C)CC(=O)NC2CC2)cc1OC	i
Cc1ccccc1OC(C)c1nc(-c2ccccn2)no1 (stereo unspecified)	2%
Cn1c(=O)c2c(ncn2CC#N)n(C)c1=O	i
O=C(Nc1ccc(Br)cc1)c1ccc(CSC2=NCCS2)cc1	i
CC(C)CN(CC(C)C)S(=O)(=O)c1ccc(C(=O)Nc2cccc(Cl)c2)cc1	i
Cc1ccc(S(=O)(=O)N2CCN(C(=O)N(C)C)CC2)cc1	i
O=C(NCc1ccccc1Cl)c1sc2cc([N+](=O)[O-])ccc2c1Cl	i
CCOc1ccc(-n2c(Cc3ccccc3)nnc2SCC(=O)Nc2c(C)cccc2C)cc1	i
CC12CCC(C(=O)Nc3ccc(I)cc3)(CC1=O)C2(C)C (stereo unspecified)	41%
CCCN=C(NS(=O)(=O)c1ccc(C)cc1)c1ccc(F)cc1	i
O=C1Nc2ccc(S(=O)(=O)ON3C(=O)c4cccc5cccc(c45)C3=O)c3cccc1c23	1%
COc1ccc(S(=O)(=O)Nc2ccccc2C(=O)NC(C)C)c(Cl)c1Cl	i
Cc1cc(Br)cc(C)c1OCC(=O)N1CCc2ccccc21	i
CC12CCC(C(N)=O)(c3nc4ccccc4nc31)C2(C)C (stereo unspecified)	i
COc1ccc(C(CC(=O)O)NC(=O)c2ccccc2)cc1 (stereo unspecified)	i
CC1CN(S(=O)(=O)c2ccc(Oc3ccc(S(=O)(=O)N4CC(C)OC(C)C4)cc3)cc2)CC(C)O1 (stereo unspecified)	i
O=C(O)CN(C1CCCCC1)S(=O)(=O)c1ccc(Br)cc1	i
COc1ccc(C)cc1S(=O)(=O)NCc1ccco1	i
O=C(COc1cc(Cl)ccc1Cl)Nc1nnc(CSc2ccccc2)s1	i
(continued)
SMILES	Mtb growth
C=CCc1cc(Cl)ccc1OCCCCn1cnc2ccccc2c1=O	7%
CC(CC(=O)Nc1ccc(S(=O)(=O)NC(C)(C)C)cc1)c1ccccc1 (stereo unspecified)	i
Cc1nc(S(=O)(=O)Cc2ccccc2)nc2ccc(F)cc12	i
O=C(c1ccc(F)cc1)N(c1ccccn1)C1CCCCC1	i
CCCCOc1ccc(S(=O)(=O)Nc2ccc(C)c(C)c2)cc1	5%
CC(C)C(c1ccc(O)cc1)c1ccc(O)cc1	i
COc1ccc(C(=O)NC(=S)Nc2cccc(C(=O)O)c2)cc1[N+](=O)[O-]	i
COc1cc(C=O)ccc1OCCOc1ccc(C)cc1Cl	i
Cc1cc(C)c(S(=O)(=O)N2CCC(C(=O)Nc3ccc(OCc4ccccc4)cc3)CC2)c(C)c1	i
COc1cccc(CN2c3cccc4cccc(c34)S2(=O)=O)c1	i
O=C(c1cccc(Br)c1)N1CCN(c2cccc(Cl)c2)CC1	i
Cc1cc(C)n2nc(Cc3ccccc3)c(-c3cccc4ccccc34)c2n1	5%
Cc1ccccc1C1CC(c2cccs2)Nc2ncnn21 (stereo unspecified)	7%
COc1ccc(C2=CC(c3c(F)cccc3Cl)n3nnnc3N2)c(OC)c1 (stereo unspecified)	5%
Cc1nc2cc(NC(=O)Nc3cccc(Br)c3)ccc2n1C	i
COc1ccc(CN2CCN(c3ncnc4scc(-c5ccccc5)c34)CC2)cc1F	20%
